Source: PubChem
gsp agonist = activates gsp, the McCune-Albright syndrome mutation; gsp mutant cells, cAMP HTRF, 30 min; control for the full effect not named in the record; Potency, µM (titrated, usually from 76.9 µM), without a hit: at the highest dose activation (cAMP increase), hits mostly activators; hit rate 0.13% among 340,000; active = well fitted activation curve with a large enough effect; inconclusive = small, poorly fitted or top-dose-only effect, or another doubt; inactive = no such curve, though single readings can be large or run the other way; cell line not stated here;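 note: phosphodiesterase inhibitor Ro 20-1724 added with compounds to block cAMP breakdown; potency is the fitted concentration of half-maximal effect; nearly all actives have a fitted effect of over 60% in size; about a fifth of the inactives were tested at one dose only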
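Cells in DMEM/10% FBS with G418 were pretreated with compounds in DMSO plus […] (300 uM stock) for 30 min at 37C. cAMP was measured by HTRF (cAMP-d2 plus anti-cAMP antibody-K) after 30 min at room temperature.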
ClpP mod = qHTS Assay for Activators of ClpP. ATP-dependent Clp protease proteolytic subunit (Bacillus subtilis (strain 168)), P80244. purified B. subtilis ClpP, FRET peptide cleavage, 20 min. Potency, µM (series often up to 57.5 µM), without a hit: top-dose activity change, negative = active. hit rate 1.9% among 340,000. AID 651965, 2013; active = well fitted falling curve with a large enough effect; inconclusive = small, poorly fitted or top-dose-only effect; inactive = no such curve, though single readings can be large or run the other way; note: potency is the fitted concentration of half-maximal effect; the source files actives as falling curves though it sought activators and does not explain the sign; nearly all actives have a fitted effect of over 65% in size; many hits overshoot -100%
Target sequence (P80244 whole entry, looked up): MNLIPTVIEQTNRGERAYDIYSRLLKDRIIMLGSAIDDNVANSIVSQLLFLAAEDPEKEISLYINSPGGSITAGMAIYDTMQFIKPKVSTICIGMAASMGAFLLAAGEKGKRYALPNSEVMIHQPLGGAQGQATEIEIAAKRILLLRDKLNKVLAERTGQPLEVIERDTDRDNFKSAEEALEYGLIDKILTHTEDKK
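ClpP 10 microg/mL final, pH 8 Tris/KCl buffer with BSA, glycerol, Tween-20; compound pinned in; FRET-FV substrate; RT 20 min; Ex320/Em430; ΔFRET vs ADEP 5.8 microM, DMSO, no enzyme.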
Menin MLL FP FL = menin-MLL binding inhibition, fluorescein peptide; FP activity change, % at 61.4 µM; 290,000 tested, under 10 active; Fluorescence polarization, fluorescein-MLL peptide displacement from menin; inconclusive = falling polarisation curve, or a change in total fluorescence; inactive = total fluorescence flat and polarisation flat or rising; no compound was filed as active; the % refers to the polarisation; negative = inhibition;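 note: % of control where 0% means no effect; inhibitors lower the polarisation; unlabelled MLL peptide was the positive control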
Sfp PPTase inh = blocks B. subtilis Sfp PPTase activity. hit rate 3.5% among 310,000. Q9F4F7. Biochemical Sfp PPTase activity, qHTS. Potency, µM, without a hit: max response, negative = inhibition, hits mostly inhibitors; active = well fitted inhibition curve with a large enough effect; inconclusive = small, poorly fitted or top-dose-only effect, or another doubt; inactive = no such curve, though single readings can be large or run the other way;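 note: the enzyme is Sfp with the accession as filed and its product quenches rhodamine fluorescence; potency is the fitted concentration of half-maximal effect; 0% = enzyme reaction without inhibitor and -100% = no enzyme wells; top concentration of the series not given in the record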
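After 15 min at room temperature with compound, 15 nM Sfp received 5 uM rhodamine-CoA plus 12.5 uM BHQ-2-ybbR (50 mM Hepes pH 7.6, 10 mM MgCl2). Rate came from the fluorescence difference over 30 min, ex 525/em 598 nm.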
gsp antagonist = antagonizes gsp, the McCune-Albright syndrome mutation. gsp-mutant cells, cAMP HTRF, 30 min; control for the full effect not named in the record. Potency, µM (titrated, usually from 76.9 µM), for inactives: at the highest dose activity change, negative = inhibition, usual class: inhibitors. hit rate 0.4% among 340,000. AID 624288; active = falling curve of any shape with a large fitted effect; inconclusive = falling curve, mostly with a smaller effect; inactive = flat or rising curve; cell line not stated here;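 note: intracellular cAMP measured with PDE inhibitor Ro 20-1724 present during compound exposure; potency is the fitted concentration of half-maximal effect; % is set by controls: 0 for no effect and ±100 for the full control effect; nearly all actives have a fitted effect of over 65% in size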
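HTRF cAMP read-out (cAMP-d2 plus anti-cAMP antibody-K in lysis buffer, 30 min RT). Before lysis, cells are exposed to compounds with […] for 30 min at 37C in DPBS containing Ca/Mg, BSA and Tween 20.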
PINK1 modulator = modulators of PINK1 expression; PINK1 immunofluorescence, high-content cytometry, 24 h; hit rate 0.2% among 410,000; Potency, µM (series often up to 76.6 µM), without a hit: top-dose activation (PINK1 increase), most hits filed as activators; active = well fitted activation curve with a large enough effect; inconclusive = small, poorly fitted or top-dose-only effect; inactive = flat fitted curve, though single readings scatter; cell line not stated here;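 note: potency is the fitted concentration of half-maximal effect; % of control where 0% means no effect; nearly all actives have a fitted effect of over 65% in size; a mitochondrial uncoupler was the plate control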
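Decision-based qHTS: stable cells, 24 h exposure to five compound concentrations, CCCP as control. Fixed cells stained for PINK1 plus nuclear, mitochondrial and cell markers, cytometer read.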
D2 ag = agonists of human D2 dopamine receptor (beta-arrestin) | P14416 | hit rate 0.084% among 360,000 | activation, % (concentration not given with the values) | DiscoveRx PathHunter D2 beta-arrestin, luminescence, 90 min; 100% = 57 uM dopamine signal; in the data active = activation above about 40%; inconclusive = about 15% to 40%; inactive = below about 15%; note: compound concentration not given in the record; the text of the record calls up to 30% inactive
Target sequence (P14416 whole entry, looked up): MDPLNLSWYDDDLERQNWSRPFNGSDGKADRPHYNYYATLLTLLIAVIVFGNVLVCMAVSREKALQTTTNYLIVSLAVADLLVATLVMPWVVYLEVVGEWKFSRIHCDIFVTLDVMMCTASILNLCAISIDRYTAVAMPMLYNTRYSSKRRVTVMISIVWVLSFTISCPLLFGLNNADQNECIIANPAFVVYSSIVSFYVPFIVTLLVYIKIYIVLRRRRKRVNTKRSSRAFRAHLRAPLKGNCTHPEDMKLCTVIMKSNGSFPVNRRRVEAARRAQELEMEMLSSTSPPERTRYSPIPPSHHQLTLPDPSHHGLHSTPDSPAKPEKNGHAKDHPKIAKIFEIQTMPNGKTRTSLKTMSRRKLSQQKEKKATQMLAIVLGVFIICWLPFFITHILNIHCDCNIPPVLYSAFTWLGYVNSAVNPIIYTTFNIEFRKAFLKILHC
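Agonist mode: compounds alone added to overnight-plated D2 PathHunter cells for 90 min at 37 C, with 57 uM final dopamine (EC100) defining full response. Beta-arrestin recruitment detected by chemiluminescent reagent, read after 1 h at ambient temperature.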
The depositor's hits bear a star; [ ] = remark or other dose. Compounds were not picked by outcome; 5.1% or so of the library scored in one or more.

Results for Cc1cccc(Nc2nnc(SCc3cc(=O)n4cc(C)ccc4n3)s2)c1 ?
gsp agonist: -45.9%[inhibitor]; ClpP mod: -3.2%; Menin MLL FP FL: 7.0; Sfp PPTase inh: -24.0%; gsp antagonist: -14.9%; PINK1 modulator: 2.3%; D2 ag: 1.0

What do the screens show for `CC(NC(=O)C(=O)N1CCCCC1)C(c1cccs1)N1CCN(c2ccc(F)cc2)CC1` (stereo unspecified)?
gsp agonist: -21.2%; ClpP mod: -3.8%; Sfp PPTase inh: 1.4%; gsp antagonist: -13.4%; PINK1 modulator: -0.3%; D2 ag: -2.5

What do the screens show for `CC(=O)C12C3C4C(C5C1C3C5(Br)C41OCCO1)C21OCCO1` (stereo unspecified)?
gsp agonist: -15.3%[15.4 µM]; ClpP mod: 0.6%; Sfp PPTase inh: -4.0%; gsp antagonist: 14.5%; PINK1 modulator: -0.1%; D2 ag: -9.1

What do the screens show for `CN(C)C(=O)c1cc(C(=O)c2ccc(F)cc2Cl)c[nH]1`?
gsp agonist: 4.4%; Menin MLL FP FL: 0.1; Sfp PPTase inh: 13.7%; gsp antagonist: -1.6%; PINK1 modulator: 1.3%; D2 ag: 7.7

How did COc1cc(OC)c(C=CC(=O)c2ccccc2O)c(OC)c1 do in these assays?
gsp agonist: -21.4%[15.4 µM]; ClpP mod: 1.9%; gsp antagonist: inconclusive; PINK1 modulator: 6.1%; D2 ag: 0.2

How did O=C(Nc1cc(C(F)(F)F)ccc1F)C1Cc2c(-c3ccccc3Oc3ccccc3)ccnc2O1 (stereo unspecified) do in these assays?
ClpP mod: -16.2%; PINK1 modulator: 0.6%; D2 ag: -4.3

How did O=C(NCc1cccnc1)C1CCN(S(=O)(=O)c2cccc(C(F)(F)F)c2)CC1 do in these assays?
gsp agonist: -30.0%; ClpP mod: 1.2%; gsp antagonist: 11.0%; PINK1 modulator: 0.5%; D2 ag: -2.4

Results for Cc1ccc([N+](=O)[O-])cc1NCC(=O)NN ?
gsp agonist: -3.4%[15.4 µM]; Menin MLL FP FL: 0.9; Sfp PPTase inh: -6.1%; gsp antagonist: 4.3%; PINK1 modulator: 0.5%; D2 ag: -3.0

Results for O=C(COC(=O)c1cc(Cl)nc(Cl)c1)NCc1ccc2c(c1)OCO2 ?
gsp agonist: 6.7%; ClpP mod: -1.4%; gsp antagonist: 3.6%; PINK1 modulator: 0.6%; D2 ag: 7.2

Results for CC(=O)NC(CCS(C)(=O)=O)C(=O)Nc1ccc(C)c(F)c1 (stereo unspecified) ?
gsp agonist: -39.0%; ClpP mod: -2.1%; Menin MLL FP FL: 0.7; Sfp PPTase inh: 4.8%; gsp antagonist: -0.5%; PINK1 modulator: -2.3%; D2 ag: 0.0

How did N/N=C/C(=N\Nc1ccc(Cl)cc1)C(=O)c1ccncc1 do in these assays?
gsp agonist: 38.8%[15.4 µM]; Menin MLL FP FL: 2.3; Sfp PPTase inh: 0.7%; gsp antagonist: -12.2%; PINK1 modulator: -0.6%; D2 ag: -5.8

Results for COc1ccc(CCNC(=O)c2ccc3c(c2)NC(=O)C(C(C)C)N3)cc1OC (stereo unspecified) ?
gsp agonist: 24.7%; Menin MLL FP FL: 1.5; Sfp PPTase inh: 14.0%; gsp antagonist: 1.0%; PINK1 modulator: 1.0%; D2 ag: 5.2

What do the screens show for `O=C(COc1ccc(Cl)cc1)NN=C1CCCCCCC1`?
gsp agonist: -7.6%[15.4 µM]; ClpP mod: 0.4%; Menin MLL FP FL: 1.5; Sfp PPTase inh: 4.3%; gsp antagonist: 4.8%; PINK1 modulator: 4.9%; D2 ag: -0.2

Results for CCCN(CC(=O)Nc1ccccc1OC)C(=O)CSc1ccc(Br)cc1C ?
gsp agonist: -33.5%; ClpP mod: -2.1%; gsp antagonist: -20.8%; PINK1 modulator: 4.9%; D2 ag: 1.0

What do the screens show for `CCc1ccc(N2CSC3=C(C#N)C(c4cccs4)CC(=O)N3C2)cc1` (stereo unspecified)?
gsp agonist: inconclusive; ClpP mod: 4.0%; Menin MLL FP FL: 13.6; Sfp PPTase inh: 2.51µM*; gsp antagonist: 1.6%; PINK1 modulator: 11.2%; D2 ag: -3.7

What do the screens show for `CC(C)NC(=O)CSc1ccccc1C(=O)N1CCN(S(=O)(=O)/C=C/c2ccccc2)CC1`?
gsp agonist: -25.6%; ClpP mod: 0.7%; gsp antagonist: -15.3%; PINK1 modulator: 1.6%; D2 ag: -3.8

Results for CCCC(C(=O)NC1CCCC1)N(Cc1ccc(OC)cc1)C(=O)c1snc(C(N)=O)c1N (stereo unspecified) ?
gsp agonist: -8.2%[15.4 µM]; Menin MLL FP FL: -3.9; Sfp PPTase inh: 10.7%; gsp antagonist: -6.5%; PINK1 modulator: -1.1%; D2 ag: -1.9

What do the screens show for `CCCC[C@@H]1CNC(=O)C(=O)N1CC(C)(C)C`?
gsp agonist: -37.9%; ClpP mod: 0.7%; Menin MLL FP FL: -0.4; Sfp PPTase inh: 20.5%; gsp antagonist: -1.4%; PINK1 modulator: -0.6%; D2 ag: 0.4

What do the screens show for `CC[C@]12c3[nH]c4cc(CCC(=O)N(C)C)ccc4c3CCN1C(=O)[C@@H](CC(=O)NCCC1=CCCCC1)C[C@@H]2C(=O)N1CCN(C(=O)C2CC2)CC1`?
ClpP mod: -0.5%; gsp antagonist: -11.3%; PINK1 modulator: -0.7%; D2 ag: -1.6

What do the screens show for `CCOC(=O)c1cnc(COc2ccccc2Cl)[nH]c1=O`?
gsp agonist: -6.5%[15.4 µM]; ClpP mod: -13.7%; Menin MLL FP FL: -1.8; Sfp PPTase inh: -8.8%; gsp antagonist: 2.6%; PINK1 modulator: 1.9%; D2 ag: -1.3

What do the screens show for `Cc1ccccc1-c1nnn(CC(=O)N2CCN(C(=O)c3ccco3)CC2)n1`?
gsp agonist: -1.8%; ClpP mod: -1.5%; gsp antagonist: 9.5%; PINK1 modulator: -0.6%; D2 ag: -2.5

Results for CN1OCC(S(=O)(=O)c2ccccc2)C1c1ccccc1 (stereo unspecified) ?
gsp agonist: 1.9%; Menin MLL FP FL: 3.7; Sfp PPTase inh: -5.8%; gsp antagonist: 1.5%; PINK1 modulator: -0.7%; D2 ag: -3.3

How did COc1cc(-c2cc(C(=O)Nc3nc4ccccc4s3)c3ccccc3n2)cc(OC)c1OC do in these assays?
gsp agonist: 22.6%; ClpP mod: -2.2%; Menin MLL FP FL: 3.2; Sfp PPTase inh: 0.2%; gsp antagonist: -4.5%; PINK1 modulator: 6.1%; D2 ag: -1.7

How did COc1ccc(NC(=O)CCNS(=O)(=O)c2ccc3[nH]c(=O)oc3c2)cc1Cl do in these assays?
gsp agonist: inconclusive; Menin MLL FP FL: 0.3; Sfp PPTase inh: 23.1%; gsp antagonist: 8.4%; PINK1 modulator: 2.0%; D2 ag: 0.8

What do the screens show for `Cc1c(C(=O)NCc2ccccc2F)oc2ccccc12`?
gsp agonist: inconclusive; ClpP mod: -0.4%; Sfp PPTase inh: 12.3%; gsp antagonist: -15.8%; PINK1 modulator: 0.0%; D2 ag: -0.8

What do the screens show for `C(=Nc1ccccc1)c1ccc[nH]1`?
gsp agonist: -2.6%[15.4 µM]; ClpP mod: -1.6%; gsp antagonist: 3.9%; PINK1 modulator: -1.8%; D2 ag: -3.3

Results for Cc1cccn2c(=O)c(/C=C(\C#N)C(=O)NCc3ccco3)c(N3CCCC(C)C3)nc12 (stereo unspecified) ?
gsp agonist: -2.8%; ClpP mod: -10.7%; Menin MLL FP FL: 5.0; Sfp PPTase inh: -3.1%; gsp antagonist: 1.6%; PINK1 modulator: -0.1%; D2 ag: -2.4

How did CCCCn1c(N)c(N(CC(C)C)C(=O)C2CC(=O)N(Cc3ccco3)C2)c(=O)[nH]c1=O (stereo unspecified) do in these assays?
gsp agonist: 67.0%; ClpP mod: -4.0%; Sfp PPTase inh: 7.6%; gsp antagonist: 11.4%; PINK1 modulator: 2.4%; D2 ag: -0.3

What do the screens show for `Cc1cc(C)c(C)c(S(=O)(=O)NCC(=O)N2CCCC2)c1C`?
gsp agonist: -4.7%; ClpP mod: 0.8%; Menin MLL FP FL: 0.3; Sfp PPTase inh: 23.2%; gsp antagonist: 3.7%; PINK1 modulator: 3.0%[38.3 µM]; D2 ag: -2.0

What do the screens show for `CCN(CC)S(=O)(=O)c1cc(NC(=O)CN2C(=O)NC3(CCCc4ccccc43)C2=O)ccc1C` (stereo unspecified)?
gsp agonist: -15.4%[15.4 µM]; Menin MLL FP FL: 7.3; Sfp PPTase inh: inconclusive; gsp antagonist: -9.3%; PINK1 modulator: -0.2%; D2 ag: -7.0

What do the screens show for `Cc1sc(NC(=O)c2ccccc2)c(C(=O)c2ccccc2)c1C`?
gsp agonist: -2.8%; ClpP mod: -7.3%; Menin MLL FP FL: -0.8; Sfp PPTase inh: 12.6µM*; gsp antagonist: -11.1%; PINK1 modulator: 14.8%; D2 ag: -6.2

How did CSc1ccccc1C(=O)NCCS(=O)(=O)N1CCN(c2ccc(F)cc2)CC1 do in these assays?
gsp agonist: 9.6%; ClpP mod: -0.8%; gsp antagonist: 2.4%; PINK1 modulator: 2.4%; D2 ag: -3.2

Results for O=C(CN1C(=O)S/C(=C\c2ccccc2F)C1=O)NC1CCS(=O)(=O)C1 (stereo unspecified) ?
gsp agonist: -25.7%; ClpP mod: -0.1%; Sfp PPTase inh: 0.2%; gsp antagonist: 11.6%; PINK1 modulator: 0.0%; D2 ag: -0.5

What do the screens show for `CC12CCC(=O)N1C(C(=O)OCc1c(Cl)cccc1Cl)CS2` (stereo unspecified)?
gsp agonist: -4.1%[15.4 µM]; Menin MLL FP FL: -1.4; Sfp PPTase inh: -0.4%; gsp antagonist: 4.8%; PINK1 modulator: 2.6%; D2 ag: -3.6

Results for Cc1cnc(CNc2ncncc2-c2ccccc2C#N)cn1 ?
Menin MLL FP FL: -4.9; Sfp PPTase inh: inconclusive; PINK1 modulator: 2.6%

Results for CCc1noc(C)c1C(=O)Nc1ccc(S(=O)(=O)N2CCCC(C)C2)cc1 (stereo unspecified) ?
gsp agonist: -9.7%[15.4 µM]; ClpP mod: -0.2%; gsp antagonist: -4.0%; PINK1 modulator: -0.1%; D2 ag: -2.4
